TRPV1 potentiator – human TRPV1 potentiation; Q8NER1; TRPV1-expressing cells, Fluo-8 calcium influx, capsaicin EC20 potentiation; host cell line not named in the record; control for the full effect not named in the record; potentiation, % at 8.33 µM; 320,000 compounds, 0.02% hits; active means potentiation above 80%; inconclusive means 30% to 80%; inactive means below 30%; also: 0% is about no effect
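Fluo-8 calcium influx in TRPV1-expressing cells, kinetic read (ex 480/em 520 nm). Compound added and read 3 min for agonist activity, followed by capsaicin at EC20 final and 2 min further read for enhancement.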
ClpP mod – qHTS Assay for Activators of ClpP | purified B. subtilis ClpP, FRET peptide cleavage, 20 min | Potency, µM (titrated, usually from 57.5 µM), inactives show top-dose activity change, negative = active | 340,000 compounds, 1.9% hits | AID 651965, 2013; active = well fitted falling curve with a large enough effect; inconclusive = small, poorly fitted or top-dose-only effect; inactive = no such curve, though single readings can be large or run the other way; also: potency is read from the fitted curve at half-maximal effect; the source files actives as falling curves though it sought activators and does not explain the sign; nearly all actives have a fitted effect of over 65% in size; many hits overshoot -100%
Target sequence (P80244 whole entry, looked up): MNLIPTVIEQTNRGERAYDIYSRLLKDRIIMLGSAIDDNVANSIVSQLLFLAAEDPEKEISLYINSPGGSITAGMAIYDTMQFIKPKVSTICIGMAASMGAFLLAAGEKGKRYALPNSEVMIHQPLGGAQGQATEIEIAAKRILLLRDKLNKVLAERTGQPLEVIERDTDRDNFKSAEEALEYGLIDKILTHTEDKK
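FRET quenching reversal measured ClpP activation: 10 microg/mL B. subtilis ClpP at pH 8 with the FRET-FV decapeptide, read at 430 nm after 320 nm excitation. The 20-min minus 0-min signal was scaled between DMSO/no-enzyme wells and ADEP (5.8 microM final).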
TRPML1 ag – human mucolipin-1 channel agonism; Q9GZU1; activation, % (test concentration not listed); TRPML1-expressing cells, Ca2+ dye fluorescence, FDSS; host cell line not named in the record; reference of the full effect not given here; 410,000 compounds, 0.12% hits; in the data active = activation above about 50%; inconclusive = about 30% to 50%; inactive = below about 30%; also: 0% is about no effect; the text of the record puts the active cut at 80%
Target sequence (Q9GZU1 whole entry, looked up): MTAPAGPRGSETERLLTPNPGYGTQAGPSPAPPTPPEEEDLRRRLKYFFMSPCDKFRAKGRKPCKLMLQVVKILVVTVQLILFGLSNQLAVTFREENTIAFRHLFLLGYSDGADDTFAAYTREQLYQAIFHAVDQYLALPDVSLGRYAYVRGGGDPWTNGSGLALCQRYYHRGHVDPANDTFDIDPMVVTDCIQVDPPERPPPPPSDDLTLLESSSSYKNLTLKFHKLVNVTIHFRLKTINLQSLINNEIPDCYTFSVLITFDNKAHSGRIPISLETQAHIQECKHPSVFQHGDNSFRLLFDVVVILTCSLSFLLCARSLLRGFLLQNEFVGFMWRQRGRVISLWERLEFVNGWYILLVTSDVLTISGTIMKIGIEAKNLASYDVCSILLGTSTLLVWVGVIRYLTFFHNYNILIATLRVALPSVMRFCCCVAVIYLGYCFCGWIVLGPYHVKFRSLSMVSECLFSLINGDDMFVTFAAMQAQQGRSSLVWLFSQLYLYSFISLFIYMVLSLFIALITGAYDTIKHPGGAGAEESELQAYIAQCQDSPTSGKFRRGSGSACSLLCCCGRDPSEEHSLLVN
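Tetracycline-induced TRPML1-DL cells are seeded and incubated overnight before loading with a no-wash Ca2+ dye and quencher. Agonist activity is taken from the 110 s fluorescence read following compound pin-transfer on an FDSS, before EC80 54-4 challenge.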
TRPML1 blocker – human mucolipin-1 channel inhibition. TRPML1-inducible cells, Ca2+ dye fluorescence, FDSS; hits give low values; inhibition of EC80 agonist-evoked calcium signal. activity change, negative = inhibition, % (no concentration beside the values). 390,000 compounds, 0.02% hits. AID 624415; in the data active means activity change below about -50%; inconclusive means about -30% to -50%; inactive means above about -30%;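 also: stimulus is agonist 54-4 at its EC80 concentration; % is scaled to controls: 0 for no effect and ±100 for the full control effect; compound concentration not given in the record; the text of the record puts the active cut at -80%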
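TRPML1-DL cells, Tet-induced overnight (~16 h, 37 °C) at 1,500 cells/well, were loaded with Ca8 no-wash dye plus quencher for 45-90 min at room temperature. Compounds were pinned during FDSS kinetic reading; agonist 54-4 at EC80 (4 uM final) then added.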
PINK1 modulator – PINK1 expression modulation; PINK1 immunofluorescence, high-content cytometry, 24 h; 410,000 compounds, 0.2% hits; AID 624263; Potency, µM (series often up to 76.6 µM), without a hit: top-dose activation (PINK1 increase), most hits filed as activators; active = well fitted activation curve with a large enough effect; inconclusive = small, poorly fitted or top-dose-only effect; inactive = flat fitted curve, though single readings scatter; cell line not stated here;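 also: potency is read from the fitted curve at half-maximal effect; % of control where 0% means no effect; nearly all actives have a fitted effect of over 65% in size; a mitochondrial uncoupler was the plate control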
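Measures PINK1 amount and localization on or inside mitochondria by immunofluorescence. Stable cells get compounds at 5 concentrations for 24 hours before fixation and staining; CCCP controls included.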
Menin MLL FP FL – displaces fluorescein MLL peptide from human menin; 290,000 tested, under 10 active; FP activity change, % at 61.4 µM; Fluorescence polarization, fluorescein-MLL peptide displacement from menin; inconclusive = falling polarisation curve, or a change in total fluorescence; inactive = total fluorescence flat and polarisation flat or rising; no compound was filed as active; the % refers to the polarisation; negative = inhibition;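 also: % of control where 0% means no effect; inhibitors lower the polarisation; unlabelled MLL peptide was the positive control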
Sfp PPTase inh – Sfp phosphopantetheinyl transferase inhibition | Q9F4F7 | Biochemical Sfp PPTase activity, qHTS | Potency, µM, inactives show max response, negative = inhibition, usual class: inhibitors | 310,000 compounds, 3.5% hits; active = well fitted inhibition curve with a large enough effect; inconclusive = small, poorly fitted or top-dose-only effect, or another doubt; inactive = no such curve, though single readings can be large or run the other way;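 also: the enzyme is Sfp with the accession as filed and its product quenches rhodamine fluorescence; potency is read from the fitted curve at half-maximal effect; 0% = enzyme reaction without inhibitor and -100% = no enzyme wells; top concentration of the series not given in the record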
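After 15 min at room temperature with compound, 15 nM Sfp received 5 uM rhodamine-CoA plus 12.5 uM BHQ-2-ybbR (50 mM Hepes pH 7.6, 10 mM MgCl2). Rate came from the fluorescence difference over 30 min, ex 525/em 598 nm.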
An asterisk follows results filed as active; ? = inconclusive; . = no result given; [ ] = remark or other dose.

SMILES	TRPV1 potentiator	ClpP mod	TRPML1 ag	TRPML1 blocker	PINK1 modulator	Menin MLL FP FL	Sfp PPTase inh
Cc1cc(OC(=O)c2ccc(C)c(C)c2)c([N+](=O)[O-])c(=O)[nH]1	16	1.4%	0.8	2	2.1%	.	15%
COc1ccc(NC(=O)NC23CC4(C)CC(C)(CC(C)(C4)C2)C3)cc1	6	-3.2%	0.9	5	?	2.1	32%[activator]
Clc1ccc(-c2ccc(CN3CCCCC3)o2)cc1	-5	-4.5%	0.3	19	6.4%	6.4	-10%
CCN1C[C@@H]2[C@@H]3C(=O)N(C)C(=O)[C@@H]3[C@](CC)(C1=O)N2C(=O)c1ccccc1	.	0.0%	-0.6	-8	-0.1%	.	.
O=S(=O)(NCc1ccc(Cl)cc1)NCc1ccc(Cl)cc1	?	2.9%	-0.2	4	4.0%	-3.5	10%
O=C(Cn1cnc2c(cnn2-c2ccccc2Cl)c1=O)N1CCc2ccccc21	5	-0.8%	-0.2	-6	2.4%[38.3 µM]	1.8	6%
O=C(CCc1ccccc1)NC(NC(=S)Nc1ccc(Cl)cc1)C(Cl)(Cl)Cl (stereo not given)	3	1.6%	0.6	-16	13%	-0.6	13%
COc1cc(OC)cc(C(=O)Nc2ccc3nc(Nc4cccc(C(F)(F)F)c4)cc(C)c3c2)c1	.	?	-0.4	11	?	.	.
COc1cc(OC)cc(C(=O)Nc2ccccc2-c2nc3ccccc3s2)c1	.	-0.6%	0.4	3	0.0%	.	.
C/C(=N\Nc1nc(-c2ccccn2)nc2ccccc12)c1ccc(F)cc1	6	0.4%	0.5	12	1.8%	4.9	12%
O=C(OCc1ccccc1F)c1ccc2c(c1)OCCO2	-6	1.4%	2.4	-16	0.9%	2.5	-8%
NNS(=O)(=O)c1ccc(Sc2ccccn2)c([N+](=O)[O-])c1	13	1.0%	2.0	-11	0.4%	-1.4	-28%
CN(C)CCCNc1nc2cc(-c3ccc(C(=O)N4CCN(C)CC4)cc3)sc2c(=O)n1C	.	4.1%	0.0	.	-0.6%	.	.
CCC(CC)c1nnc(NC(=O)[C@@H](NC(=O)c2cccc(C)c2)C(C)C)s1	-2	.	-0.4	-5	1.4%	6.3	-8%
Cc1cc(C)c(C(=O)c2ccc(C(=O)N3CCCCC3)cc2)c(C)c1	-9	0.0%	2.3	30	1.5%	-1.5	0%
COc1cccc2cc(-c3cn4ccc(C)cc4n3)c(=O)oc12	.	-1.6%	0.5	-3	4.8%[38.3 µM]	.	.
O=C(CNC(=O)c1cccs1)c1ccc([N+](=O)[O-])cc1	6	-2.5%	0.1	0	-0.3%	0.4	-3%
COc1ccc(-c2ccc(=O)n(CC(=O)Nc3ccc(C(=O)NC4CC4)cc3)n2)cc1OC	14	-7.8%	-0.1	37	-1.5%	0.5	18%
O=C(c1ccccc1)N1CCN(c2ccccc2F)CC1	-9	-0.4%	-0.8	-9	-0.3%	8.7	5%
O=C(Cc1ccc(S(=O)(=O)N2CCOCC2)s1)Nc1ccc(S(=O)(=O)N2CCCCC2)cc1	4	-3.8%	0.7	1	2.0%	.	.
O=S(=O)(Cc1cc(Cl)nc(-c2ccncc2)n1)c1ccccc1	13	.	0.0	-9	0.4%	2.8	14%
C/C(CC(=O)Nc1ccc(N(C)C)cc1)=N\NC(=O)c1ccccc1F	-17	-2.5%	-0.4	-9	1.5%	2.1	5%
CCOC(=O)C1(CCOC)CCN(C(=O)c2ccccc2-c2cccc(C)c2)CC1	-22	.	-0.8	-6	0.2%	-0.6	15%
O=C(COc1ccccc1)NCc1ccc(-n2cccc2)cc1	2	-1.9%	-1.0	0	3.9%	0.1	13%
Cc1cc(Br)ccc1NS(=O)(=O)c1c(C)[nH]c(=O)[nH]c1=O	-16	-0.3%	-0.7	24	2.0%	-21	-7%
CC(Cc1ccccc1)(NC(=O)CN)c1ccccc1 (stereo not given)	-3	.	.	.	.	-5.1	11%
Cn1c(Cn2cnc3ccccc32)nnc1SCC(=O)CC(=O)Nc1ccccc1	-14	-1.1%	0.0	15	-1.1%	1.3	14%
COc1ccc(NC(C)=O)cc1NC(=O)CSc1nc2ncccc2[nH]1	7	-0.6%	-0.8	-6	-0.7%	-0.5	-4%
Nc1c(C(=O)Nc2ccccc2)sc2nc3c(c(-c4ccco4)c12)CCC3	-1	-3.1%	-0.3	-10	9.0%	-6.9	-3%
Cc1cccc(N2CCN(C(=O)C3CCN(S(=O)(=O)c4cccnc4)CC3)CC2)c1C	17	0.5%	-1.0	6	0.7%	-3.3	18%

An excerpt from above in order of heavy-atom count, low to high:
SMILES	TRPV1 potentiator	ClpP mod	TRPML1 ag	TRPML1 blocker	PINK1 modulator	Menin MLL FP FL	Sfp PPTase inh
O=C(c1ccccc1)N1CCN(c2ccccc2F)CC1	-9	-0.4%	-0.8	-9	-0.3%	8.7	5%
O=C(CCc1ccccc1)NC(NC(=S)Nc1ccc(Cl)cc1)C(Cl)(Cl)Cl (stereo not given)	3	1.6%	0.6	-16	13%	-0.6	13%
CN(C)CCCNc1nc2cc(-c3ccc(C(=O)N4CCN(C)CC4)cc3)sc2c(=O)n1C	.	4.1%	0.0	.	-0.6%	.	.

Additional results.
SMILES	TRPV1 potentiator	ClpP mod	TRPML1 ag	TRPML1 blocker	PINK1 modulator	Menin MLL FP FL	Sfp PPTase inh
Cc1csc(NC(=O)C2CCCN2C(=O)OCC(C)C)n1 (stereo not given)	15	1.6%	0.1	-4	1.4%	-1.3	-12%
CN1C(=O)C(C)(C)c2cc(S(=O)(=O)NCc3ccc(Cl)cc3)ccc21	-15	2.1%	-0.3	4	2.6%	-1.2	20%
Cc1ccc(NC(=O)OC(C)N2CCCCC2)cc1NC(=O)OC(C)N1CCCCC1 (stereo not given)	.	.	0.5	0	-1.0%	.	.
CCO[C@@H]1OC(C(=O)NC2CC2)=C[C@H](C)[C@H]1CCCO	18	1.2%	0.1	21	0.2%	5.9	-1%
CCc1ccc2oc(C(=O)Nc3c(C)n(C)n(-c4ccccc4)c3=O)cc(=O)c2c1	.	-3.4%	1.0	-2	1.9%	.	.
COc1ccc(-c2cc(C(=O)NNC(=O)c3csc(N4CCOCC4)n3)c3ccccc3n2)cc1OC	3	.	-0.9	5	2.6%	.	.
C/C(=N\NC(=O)c1cccc(S(=O)(=O)Nc2cccc(Cl)c2)c1)c1cccs1	-3	.	0.0	-2	7.0%	4.0	14%
O=[N+]([O-])c1ccc(-c2nn(-c3ccccc3)cc2/C=N/n2c(-c3cccs3)n[nH]c2=S)cc1	-1	.	0.7	-22	-1.7%	1.6	-6%
CC(=O)OCC1=C(C(=O)O)N2C(=O)[C@@H](NC(=O)Cc3ccccc3)[C@H]2SC1	.	-2.1%	0.0	17	-0.1%	.	.
CCN1C=C(C(C)=O)C(=O)CC1	.	-0.3%	-0.7	18	-1.5%	.	.
C=CCSc1cc(C)nc2c(-c3ccccc3)c(C)nn12	7	.	2.1	5	2.1%	-2.0	0%
COC(=O)C1=C(C)N(c2cccc(C(C)=O)c2)C(=O)C1	-6	3.3%	-0.3	-1	-0.7%	-1.3	-1%
CSc1nc(=O)n2cc(C)ccc2n1	-1	.	0.8	-7	-0.3%	-2.8	14%
CC(C)(C)C1CCC2(CC1)NC(=S)N(c1ccccc1)N2 (stereo not given)	4	0.1%	0.3	-8	0.2%	0.2	?
COc1ccc(C2=Nc3ccccc3NC(=O)C2N(CCc2ccccc2)C(=O)c2cccs2)cc1 (stereo not given)	.	-2.0%	-0.5	.	6.0%	.	.
O=C(CCCC(=O)N(CC(=O)NC1CCCC1)Cc1ccc(F)cc1)Nc1ccccn1	-7	-9.4%	-0.8	-1	-0.5%	0.5	7%
O=C(C(=O)c1cc(Br)ccc1O)c1cc(Br)ccc1O	.	.	2.8	-3	?	.	.
Cc1cc(C)c(S(=O)(=O)Nc2ccc3oc4c(c3c2)C(=O)CC(C)(C)C4)cc1C	.	-5.1%	0.3	1	2.9%	.	.
Cc1ccnc2c(N3C(=O)C4C5C=CC(C5)C4(C)C3=O)cccc12 (stereo not given)	23	-2.2%	-0.2	-4	0.9%	2.8	6%
Cc1ccc(C(CC(=O)c2ccc(Cl)cc2)C(=O)O)cc1 (stereo not given)	-31	.	-0.7	5	-0.2%	-3.1	10%
Cc1ccnc(SC2CC(=O)N(c3ccc(C(C)C)cc3)C2=O)n1 (stereo not given)	4	0.1%	-1.2	-1	0.8%	4.0	-2%
Cc1cccc(NC(=O)c2nc[nH]c2C(=O)N[C@@H](C)C(=O)OC(C)(C)C)c1	-10	0.8%	1.4	4	1.9%	0.3	23%
O=C(NCc1ccco1)C(=O)c1cn(CC(=O)N2CCCC2)c2ccccc12	-8	.	-0.9	-11	-0.8%	5.5	10%
O=c1cc(-c2ccccc2Cl)oc2c(NS(=O)(=O)c3cccc4nsnc34)ccc(O)c12	5	-3.7%	1.8	-19	-0.2%	1.1	4%
Cc1cc(=O)n(-c2ccccc2Cl)[nH]1	?	0.8%	-0.3	2	0.7%	-1.2	10%
COc1ccccc1NC(=O)N1CCN(Cc2ccc3c(c2)OCO3)CC1	.	.	0.6	1	-2.4%	1.0	?
CC(=O)Nc1ccc(NC(=O)CCCN2C(=O)C(c3ccccc3)Oc3cccnc32)cc1 (stereo not given)	.	3.2%	-0.9	3	3.8%	.	.
CC(=O)c1c(N2CCN(c3ccccc3)CC2)nc(=S)n(-c2ccccc2)c1C	4	-1.5%	0.6	-3	-0.4%	?	79µM*
Cc1cc2ncn(CC3CC3(Cl)Cl)c2cc1C (stereo not given)	-24	.	1.8	8	-1.4%	1.1	-2%
COc1ccc(N2CCN(Cc3nc(N)nc(Nc4ccccc4OC)n3)CC2)cc1	7	-0.5%	1.7	7	13%	4.1	3%
Cc1cccc(C)c1Nc1nn2c(=O)c3cc4c(cc3nc2s1)OCO4	.	1.5%	0.4	-11	0.5%	.	.
CCOc1ccc(NC(=S)NCc2cccnc2)cc1	.	.	4.9	1	0.1%	2.9	13%
Cc1cc(C)cc(OCC(=O)OC/C(O)=C(\C#N)c2nc3ccccc3[nH]2)c1	8	-4.8%	0.0	-13	?	17	7%
N#C/C(=C/c1ccc(N2CCOCC2)c([N+](=O)[O-])c1)C(N)=O	6	-0.8%	0.4	12	2.0%[38.3 µM]	2.0	0%

Screening results deposited in PubChem by National Center for Advancing Translational Sciences (NCATS).
